Bioassay records from PubChem.
miR-21 reporter – raises the signal of a miR-21 reporter. 340,000 tested, under 10 active. AID 2288. Potency, µM (highest dose often 38.3 µM), without a hit: top-dose reporter change, positive = more light. HeLa miR-21 FLuc reporter, luciferase, 48 h; active = well fitted rising curve with a large enough effect; inconclusive = small, poorly fitted or top-dose-only effect; inactive = no such curve, though single readings can be large or run the other way;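 note: % of control where 0% means no effect; miR-21 action dims this reporter so a rising signal means less miR-21 action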
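Compounds were titrated across several concentrations (up to approximately 40 uM) and incubated 48 hours with HeLa miR-21-FLuc reporter cells (miR-21 target sequence downstream of FLuc, endogenous miR-21). Readout was firefly luciferase luminescence after lytic detection reagent.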
Rango dissoc inh – inhibition of RanGTP-driven Rango-importin beta dissociation; 340,000 tested, 0.071% active; Potency, µM (series often up to 46.1 µM), without a hit: at the top dose activity change, negative = inhibition; O95149+P62826; AID 540253; Biochemical FRET Rango-importin beta, RanGTP-induced dissociation; active means falling FRET ratio curve, often poorly fitted, with flat reads before Ran was added; inconclusive means other falling curves, or compound fluorescence or quenching; inactive means flat or rising ratio curve;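 note: potency is the fitted concentration of half-maximal effect; % of control where 0% means no effect; nearly all actives have a fitted effect of over 45% in size; -100% = wells without RanGTP and RCC1; the record marks most hits as doubtful in a second field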
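Two FRET readings bracket the reaction: one 5 min after compound meets Rango–importin beta, another 45 min after RanGTP-RCC1 (0.6 uM Ran, 0.2 uM RCC1, 2 mM GTP) is added. Only the second defines inhibition.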
GLA inh pH 4.5 – alpha-galactosidase A (human) inhibition, pH 4.5; purified enzyme, 4-MU-alpha-Gal fluorescence, pH 4.5; 230,000 tested, under 10 active; activity change, negative = inhibition, % at 105 µM; P06280; inconclusive = small, poorly fitted or top-dose-only inhibition, or a rising curve; inactive = flat fitted curve, though single readings scatter; no compound was filed as active;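 note: 0% = full activity with enzyme and -100% = basal without enzyme; dose as in the result columns while the protocol names 77 µM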
Target sequence (P06280 whole entry, looked up): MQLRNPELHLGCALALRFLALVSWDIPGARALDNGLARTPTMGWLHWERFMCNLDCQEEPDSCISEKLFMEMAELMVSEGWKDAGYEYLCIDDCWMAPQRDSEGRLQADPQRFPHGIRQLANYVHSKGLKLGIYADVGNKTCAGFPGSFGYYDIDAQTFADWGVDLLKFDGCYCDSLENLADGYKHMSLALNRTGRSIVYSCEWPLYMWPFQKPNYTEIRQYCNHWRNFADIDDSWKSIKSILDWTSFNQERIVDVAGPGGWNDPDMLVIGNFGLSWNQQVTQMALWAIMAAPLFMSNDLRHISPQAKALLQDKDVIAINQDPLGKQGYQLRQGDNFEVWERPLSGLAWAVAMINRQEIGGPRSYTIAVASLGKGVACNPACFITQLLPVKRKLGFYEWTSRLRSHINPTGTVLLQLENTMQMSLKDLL
Rango complex inh – prevents formation of the Rango-importin beta complex. Q14974. Rango CFP/YFP FRET sensor + importin beta, 45 min. Potency, µM (series often up to 92.2 µM), inactives show at the top dose inhibition of complex formation. 340,000 tested, 0.031% active. AID 540263; active = rising FRET ratio curve, often small or poorly fitted; inconclusive = mostly compound fluorescence or quenching in the first reads; inactive = flat curves in all reads;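 note: potency is the fitted concentration of half-maximal effect; 0% = DMSO wells and 100% = buffer wells lacking importin beta; nearly all actives have a fitted effect of over 15% in size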
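FRET biosensor (snurportin 1 IBB flanked by EYFP and cerulean), 50 nM, with compound 5 min, then 0.125 microM importin beta in PBS, 1 mM DTT, 0.02% Tween-20, 0.1% BSA. CFP/YFP ratio read after 45 min at room temperature; pre-read flags interference.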
Numbers without * were called inactive; u = inconclusive; x = no result given; [ ] = remark or other dose.

canonical_smiles | miR-21 reporter | Rango dissoc inh | GLA inh pH 4.5 | Rango complex inh
CCOC(=O)N1CCC(NC(=O)c2ccc3c(=O)n4c(nc3c2)CCCC4)CC1 | -9% | 7% | -4 | 1.7%
NC(=O)C1CCN(C(=O)c2cc(Cl)c3c(c2)OCCO3)CC1 | x | 8% | x | 1.3%
Cc1cc(C)nc(/N=C(\N)Nc2ccc(SC(F)F)cc2)n1 | 15% | -6% | 0 | 1.9%
OCCN(CCO)CC(O)CN1c2ccccc2Sc2ccccc21 (centres undefined) | 1% | -2% | x | -1.7%
CC1CN(/C(=N\S(=O)(=O)c2ccccc2)c2ccccc2)CC(C)O1 (centres undefined) | -4% | 17% | 0 | -1.0%
COc1ccc(C2CC(=O)C=C(NC3CCCC3)C2)cc1 (centres undefined) | -3% | -6% | -8 | 1.5%
Cc1n[nH]c(=O)c2c(NC(=O)CSc3nn(-c4ccccc4)c(=S)s3)oc(C)c12 | x | -15% | x | -4.8%
CC(=O)CCc1ccc(OCC(O)CNCCOc2ccc(C)cc2)cc1 (centres undefined) | -1% | -3% | x | 0.0%
CCOC(=O)C1=C(CC)Nc2ccccc2N=C1NC(=O)c1ccc(S(=O)(=O)N2CCOCC2)cc1 | -7% | 0% | -28 | -2.3%
COc1ccccc1CNC(=O)C1CCCC1 | 0% | 10% | x | -6.4%
CSc1ccccc1OCc1cc(C(=O)N2CCc3sccc3C2)no1 | -14% | 13% | x | -0.9%
Cc1ccc(S(=O)(=O)N(Cc2cc3ccc(C)cc3[nH]c2=O)c2ccccc2)cc1 | -7% | 0% | -8 | -1.3%
CCC(C)(C)NC(=O)C(c1ccccc1Cl)N(Cc1cccnc1)C(=O)CCC(=O)Nc1cc(C)on1 (centres undefined) | -8% | -4% | x | -4.3%
CCC1=NN(C(=O)C(=O)Nc2ccc(OC)cc2)C(O)(C(F)(F)F)C1 (centres undefined) | -2% | 7% | 1 | -0.4%
CC(C)CC(=O)Nc1ccc(C(=O)CN2CCN(c3ccc(O)cc3)CC2)cc1 | 3% | -4% | x | -2.6%
CC(OC(=O)CC1CC2CCC1C2)C(=O)Nc1ccc(N2CCOCC2)cc1 (centres undefined) | -10% | 1% | -1[21.1 µM] | -0.3%
COC(=O)c1ccccc1C(=O)c1ccc2c(c1)NC(=O)CO2 | -1% | 26% | 4 | 1.3%
Cc1cc(C(=O)NNC(=O)CN2C(=O)NC3(CCCCC3)C2=O)c(C)o1 | x | -6% | x | 0.5%
Cc1cc(N2CCN(C)CC2)nc2ccc(NC(=S)NCc3cccs3)cc12 | -19% | 0% | -9 | 3.8%
CC(C)(C)c1cc(/C=N/NC(=O)Cc2nc3ccccc3[nH]2)cc(C(C)(C)C)c1O | -3% | -29% | 1 | u
CCN(C(=O)CSc1n[nH]c(N)n1)C1CCCCC1 | x | -10% | x | -1.7%
CC(C)(C)C(=O)CSc1ncccn1 | 2% | -9% | 0 | 1.4%
COC(=O)C(CC(C)C)Oc1ccc2c(C)cc(=O)oc2c1 (centres undefined) | 1% | 6% | -10 | -1.6%
COc1ccccc1NC1=NC(c2ccc(Cl)cc2)N=C(N)N1 (centres undefined) | 29% | 0% | -3 | -0.1%
Cc1ccc(NC(=O)c2ccc(NS(=O)(=O)c3ccc4[nH]c(=O)[nH]c4c3)cc2)nc1 | x | -2% | x | -0.1%
COc1cc(C(C)=O)ccc1OCC(=O)Nc1ccc2nc(C)sc2c1 | x | -6% | x | 1.2%
CCCn1cnc2c(SCc3ccc(Cl)cc3)nc(N)nc21 | x | 13% | x | 1.0%
N#Cc1sc2nc3c(c(-c4ccco4)c2c1N)CCCC3 | -9% | u | -8 | u
Cc1ccccc1C(=O)NCCCc1ccccc1 | -58% | 2% | 2 | -2.1%
O=C(Cc1c[nH]c2ccccc12)Nc1nc2ccccc2[nH]1 | -32% | 0% | -4 | -2.3%
COc1cccc(N2CCC(N3CCN(C)C(CCO)C3)CC2)c1 (centres undefined) | -9% | -6% | x | -0.3%
C[C@H](NC(=O)NC1CCCc2ccccc21)C(=O)O (some centres undefined) | -2% | -2% | -2 | -1.5%
NC(=O)C1(C(N)=O)OC1c1ccc(Cl)c(Cl)c1 (centres undefined) | 4% | -27% | 8 | 5.8%
O=c1c(C(c2nnnn2C2CCCCC2)N2CCCCC2)coc2ccc(Cl)cc12 (centres undefined) | -6% | -1% | 3 | -2.5%
CC(C)(C)c1cn(-c2ccc(F)cc2)c(=S)[nH]1 | 0% | -4% | 3 | -0.2%
CC(C)(C)NC(=O)C(c1ccc(O)cc1)N(Cc1ccccc1)C(=O)CCC(=O)Nc1nccs1 (centres undefined) | 6% | 0% | x | -0.7%
COc1ccc(N(C)C(=O)c2sc(Cl)nc2C)cc1 | 4% | -6% | x | 8.1%
COc1ccc(C(=O)N(CC2CCCO2)C(C(=O)NCCC(C)C)c2ccc(C)cc2)cc1OC (centres undefined) | -7% | 0% | -5 | -2.7%
Cc1cccc(/C=C\c2nc3ccccc3c(=O)[nH]2)c1 | -45% | -2% | 27 | -4.1%
CCCn1c(NCc2cc(C)ccc2O)nc2ccccc21 | -4% | 21% | 6 | 5.4%
CC(C)NC(=O)c1ccc(-n2nc(C(F)(F)F)c3c2CCCC3)cc1 | -10% | -10% | -3 | 5.4%
O=C(O)c1cccc(-n2cccc2/C=C2/NC(=O)N(c3cccc(Cl)c3)C2=O)c1 | -5% | 8% | -7 | -0.9%
CCc1cc2c(N3CCN(C(=O)c4ccco4)CC3)ncnc2s1 | -8% | -3% | 4 | -0.2%
CCc1c(C(=O)NN2C(=O)C3CCCCC3C2=O)csc1C (centres undefined) | -23% | -8% | 8 | 0.1%
CN1/C(=C\C(=O)C[n+]2cccc(Br)c2)C(C)(C)c2ccccc21 | u | -1% | -2 | -2.1%
O=c1c2ccc([N+](=O)[O-])cc2ncn1Cc1ccccc1C(F)(F)F | -7% | -4% | 14 | -2.4%
O=C(CSC(=S)N1CCSCC1)c1ccccc1 | -33% | 22% | 2 | -4.4%
COc1cc(/C=C/C2=NNC(=O)CC2)cc(OC)c1OC | -11% | 2% | x | 0.1%
CCN(CC)CCCn1c(C)cc2c(c1=O)C(c1cc(OC)c(OC)cc1OC)C(C#N)=C(N)O2 (centres undefined) | -1% | -8% | 1 | 2.2%
C#CNC(=O)C1(CC=C)CCNCC1 | x | -11% | x | -1.3%

Further compounds.
canonical_smiles | miR-21 reporter | Rango dissoc inh | GLA inh pH 4.5 | Rango complex inh
NC(=O)N/N=C/c1cn(-c2ccccc2)nc1-c1ccccc1 | -41% | -4% | -7 | 0.8%
CCc1nc2sc3c(c2c(=O)n1N)CCC3 | -5% | -10% | 2 | -0.2%
O=C(NCCc1cnc[nH]1)c1ccc(-c2ccccc2)cc1 | -45% | 2% | x | -1.1%
CCOC(=O)COn1c(=O)c(-c2cccs2)[n+]([O-])c2ccccc21 | -20% | u | 1 | u
COc1cc(NC(=S)N2CCN(C(=O)c3ccco3)CC2)c(OC)cc1Cl | -3% | 19% | -8 | -0.9%
COCCCn1c(C(=O)Nc2ccc3c(c2)OCO3)cc2c(=O)n3ccccc3nc21 | -2% | u | x | u
Cc1ccccc1C(=O)Nc1ccccc1NC(=O)c1ccccc1Br | 7% | 11% | x | 1.8%
CC(C)(C)N(NC(=O)OCc1ccccc1)C(=O)c1ccccc1 | 1% | 21% | -5 | 3.7%
O=C(CN1CCN(Cc2ccccc2F)C1=O)NCC1CCCO1 (centres undefined) | 7% | -7% | -18 | 0.0%
O=C(Nc1ccc2c(c1)OCCO2)C1CCN(S(=O)(=O)c2cccc3nsnc23)CC1 | 0% | 25% | u | 0.6%
Cc1[nH]c2ccc(CNS(=O)(=O)c3ccc(S(=O)(=O)N4CCOCC4)cc3)cc2c1C | -1% | -9% | -7 | -0.1%
CCOc1ccc(/C(CCC(=O)O)=N/NC(=S)NCCc2ccccc2)cc1 | 0% | 6% | 0 | 0.8%
COC(=O)c1cc2oc(C)cc2n1CC(=O)Nc1ccc(C)c(C)c1 | -9% | -13% | 7 | -5.3%
O=C(Cc1csc(-c2ccccc2)n1)NCc1ccco1 | -19% | 13% | 5 | -2.7%
c1ccc2nc3c(cc2c1)CCCCCC3 | 1% | 17% | 0 | 0.0%
O=C(/C=C/c1ccc([N+](=O)[O-])cc1)N1CCN(S(=O)(=O)c2ccccc2)CC1 | x | 21% | x | 0.0%
CC1Cc2ccccc2N1C(=O)C(C)n1cc(C(F)(F)F)cc(Cl)c1=O (centres undefined) | x | 22% | x | 7.8%
CC(C)NC(=O)C(=O)NCCc1ccc(Cl)cc1 | -2% | -2% | -31 | 0.1%

Structural class, those above with an NH in an aromatic ring
canonical_smiles | miR-21 reporter | Rango dissoc inh | GLA inh pH 4.5 | Rango complex inh
Cc1n[nH]c(=O)c2c(NC(=O)CSc3nn(-c4ccccc4)c(=S)s3)oc(C)c12 | x | -15% | x | -4.8%
Cc1ccc(S(=O)(=O)N(Cc2cc3ccc(C)cc3[nH]c2=O)c2ccccc2)cc1 | -7% | 0% | -8 | -1.3%
CC(C)(C)c1cc(/C=N/NC(=O)Cc2nc3ccccc3[nH]2)cc(C(C)(C)C)c1O | -3% | -29% | 1 | u
CCN(C(=O)CSc1n[nH]c(N)n1)C1CCCCC1 | x | -10% | x | -1.7%
Cc1ccc(NC(=O)c2ccc(NS(=O)(=O)c3ccc4[nH]c(=O)[nH]c4c3)cc2)nc1 | x | -2% | x | -0.1%
O=C(Cc1c[nH]c2ccccc12)Nc1nc2ccccc2[nH]1 | -32% | 0% | -4 | -2.3%
CC(C)(C)c1cn(-c2ccc(F)cc2)c(=S)[nH]1 | 0% | -4% | 3 | -0.2%
Cc1cccc(/C=C\c2nc3ccccc3c(=O)[nH]2)c1 | -45% | -2% | 27 | -4.1%
O=C(NCCc1cnc[nH]1)c1ccc(-c2ccccc2)cc1 | -45% | 2% | x | -1.1%
Cc1[nH]c2ccc(CNS(=O)(=O)c3ccc(S(=O)(=O)N4CCOCC4)cc3)cc2c1C | -1% | -9% | -7 | -0.1%

Full records from above:
Cc1cc(C(=O)NNC(=O)CN2C(=O)NC3(CCCCC3)C2=O)c(C)o1 across the screens: miR-21 reporter = x; Rango dissoc inh = -6%; GLA inh pH 4.5 = x; Rango complex inh = 0.5%
CCc1nc2sc3c(c2c(=O)n1N)CCC3 across the screens: miR-21 reporter = -5%; Rango dissoc inh = -10%; GLA inh pH 4.5 = 2; Rango complex inh = -0.2%

These rows are one share of the data; the hit share may differ from the screen's.
